gsp agonist – agonists of gsp mutant (McCune-Albright syndrome) | gsp mutant cells, cAMP HTRF, 30 min; control for the full effect not named in the record | Potency, µM (top dose mostly 76.9 µM), without a hit: top-dose activation (cAMP increase), usual class: activators | 340,000 compounds, 0.13% hits; active = well fitted activation curve with a large enough effect; inconclusive = small, poorly fitted or top-dose-only effect, or another doubt; inactive = no such curve, though single readings can be large or run the other way; cell line not stated here;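 also: phosphodiesterase inhibitor Ro 20-1724 added with compounds to block cAMP breakdown; potency is read from the fitted curve at half-maximal effect; nearly all actives have a fitted effect of over 60% in size; about a fifth of the inactives were tested at one dose only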
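Cells in DMEM/10% FBS with G418 were pretreated with compounds in DMSO plus […] (300 uM stock) for 30 min at 37C. cAMP was measured by HTRF (cAMP-d2 plus anti-cAMP antibody-K) after 30 min at room temperature.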
TRPV1 potentiator – human TRPV1 potentiation | Q8NER1 | TRPV1-expressing cells, Fluo-8 calcium influx, capsaicin EC20 potentiation; host cell line not named in the record; control for the full effect not named in the record | potentiation, % at 8.33 µM | 320,000 compounds, 0.02% hits | AID 540277; active means potentiation above 80%; inconclusive means 30% to 80%; inactive means below 30%; also: 0% is about no effect
Target sequence (Q8NER1 whole entry, looked up): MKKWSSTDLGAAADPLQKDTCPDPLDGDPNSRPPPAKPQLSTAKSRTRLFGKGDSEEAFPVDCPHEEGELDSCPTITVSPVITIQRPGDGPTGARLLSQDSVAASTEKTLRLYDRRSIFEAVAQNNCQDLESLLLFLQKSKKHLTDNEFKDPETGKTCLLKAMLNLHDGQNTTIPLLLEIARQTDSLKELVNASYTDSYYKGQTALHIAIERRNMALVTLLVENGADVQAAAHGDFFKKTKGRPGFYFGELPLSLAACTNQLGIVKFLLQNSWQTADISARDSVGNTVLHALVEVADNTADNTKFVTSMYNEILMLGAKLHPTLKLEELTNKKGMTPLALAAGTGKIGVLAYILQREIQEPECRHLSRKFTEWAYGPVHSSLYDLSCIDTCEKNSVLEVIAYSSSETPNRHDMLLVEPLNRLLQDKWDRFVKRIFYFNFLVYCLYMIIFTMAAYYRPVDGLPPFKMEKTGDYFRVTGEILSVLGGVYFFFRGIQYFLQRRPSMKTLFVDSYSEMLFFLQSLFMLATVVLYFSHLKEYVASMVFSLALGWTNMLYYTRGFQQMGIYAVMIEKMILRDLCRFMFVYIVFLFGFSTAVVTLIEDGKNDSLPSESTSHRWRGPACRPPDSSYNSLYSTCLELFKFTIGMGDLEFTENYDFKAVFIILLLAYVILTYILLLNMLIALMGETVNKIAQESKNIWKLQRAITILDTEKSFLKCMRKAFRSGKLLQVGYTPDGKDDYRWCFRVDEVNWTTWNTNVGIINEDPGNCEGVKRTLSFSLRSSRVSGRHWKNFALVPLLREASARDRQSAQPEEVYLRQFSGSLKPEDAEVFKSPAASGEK
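Cells expressing TRPV1 were dye-loaded with Fluo-8 and read kinetically: 10 s baseline, 3 min after compound (agonist portion), then 2 min after EC20 capsaicin (allosteric enhancer portion). Calcium-bound dye fluorescence at 480/520 nm.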
gsp antagonist – antagonizes gsp, the McCune-Albright syndrome mutation. Potency, µM (top dose mostly 76.9 µM), for inactives: at the top dose activity change, negative = inhibition, actives largely listed as inhibitors. gsp-mutant cells, cAMP HTRF, 30 min; control for the full effect not named in the record. 340,000 compounds, 0.4% hits. AID 624288; active = falling curve of any shape with a large fitted effect; inconclusive = falling curve, mostly with a smaller effect; inactive = flat or rising curve; cell line not stated here;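 also: intracellular cAMP measured with PDE inhibitor Ro 20-1724 present during compound exposure; potency is read from the fitted curve at half-maximal effect; % is scaled to controls: 0 for no effect and ±100 for the full control effect; nearly all actives have a fitted effect of over 65% in size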
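Cells, 2000/well, grown 16–24 h in DMEM 10% FBS with 0.5 mg/ml G418, then compounds plus […] (300 uM addition stock), 30 min at 37C. cAMP read by HTRF (cAMP-d2 and anti-cAMP antibody-K in lysis buffer) after 30 min RT.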
CtBP-E1A inh – inhibitors of CtBP/E1A interaction; AlphaScreen GST-E1A/His-CtBP binding, 1536-well; active compounds read low; control for the full effect not named in the record; activity change, % (test concentration not listed); 340,000 compounds, 0.49% hits; AID 651724; in the data active means activity change below about -65%; inconclusive means about -30% to -65%; inactive means above about -30%; also: % is scaled to controls: 0 for no effect and ±100 for the full control effect
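In 5 uL wells, 23 nL compound meets equimolar GST-E1A and His-CtBP (5X stock 125 nM each) for 2 h, 37 °C. Beads (5X, 50 ug/mL) then 1 h, 37 °C, dark.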
Menin-MLL FL inh – displaces fluorescein MLL peptide from human menin | Fluorescence polarization, fluorescein-MLL peptide displacement from menin | FP activity change, % at 61.4 µM | 290,000 tested, under 10 active | AID 1766; inconclusive = falling polarisation curve, or a change in total fluorescence; inactive = total fluorescence flat and polarisation flat or rising; no compound was filed as active; the % refers to the polarisation; negative = inhibition;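 also: % of control where 0% means no effect; inhibitors lower the polarisation; unlabelled MLL peptide was the positive control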
Sfp inh – inhibitors of Bacillus subtilis Sfp phosphopantetheinyl transferase; Q9F4F7; Biochemical Sfp PPTase activity, qHTS; Potency, µM, for inactives: max response, negative = inhibition, actives largely listed as inhibitors; 310,000 compounds, 3.5% hits; active = well fitted inhibition curve with a large enough effect; inconclusive = small, poorly fitted or top-dose-only effect, or another doubt; inactive = no such curve, though single readings can be large or run the other way;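 also: the enzyme is Sfp with the accession as filed and its product quenches rhodamine fluorescence; potency is read from the fitted curve at half-maximal effect; 0% = enzyme reaction without inhibitor and -100% = no enzyme wells; top concentration of the series not given in the record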
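Compounds were incubated with enzyme (final 15 nM) for 15 min at room temperature before substrate addition started the reaction. Fluorescence at 525 nm excitation, 598 nm emission was recorded immediately and after 30 minutes.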
ClpP mod – qHTS Assay for Activators of ClpP; ATP-dependent Clp protease proteolytic subunit (Bacillus subtilis (strain 168)), P80244; purified B. subtilis ClpP, FRET peptide cleavage, 20 min; Potency, µM (highest dose often 57.5 µM), without a hit: at the top dose activity change, negative = active; 340,000 compounds, 1.9% hits; active = well fitted falling curve with a large enough effect; inconclusive = small, poorly fitted or top-dose-only effect; inactive = no such curve, though single readings can be large or run the other way; also: potency is read from the fitted curve at half-maximal effect; the source files actives as falling curves though it sought activators and does not explain the sign; nearly all actives have a fitted effect of over 65% in size; many hits overshoot -100%
Target sequence (P80244 whole entry, looked up): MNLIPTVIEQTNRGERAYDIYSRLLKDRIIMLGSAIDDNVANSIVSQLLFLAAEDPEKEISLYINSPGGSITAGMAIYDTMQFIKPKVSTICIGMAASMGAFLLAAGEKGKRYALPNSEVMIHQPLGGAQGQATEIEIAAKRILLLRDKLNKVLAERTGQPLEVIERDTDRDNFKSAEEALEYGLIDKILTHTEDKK
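FRET quenching reversal measured ClpP activation: 10 microg/mL B. subtilis ClpP at pH 8 with the FRET-FV decapeptide, read at 430 nm after 320 nm excitation. The 20-min minus 0-min signal was scaled between DMSO/no-enzyme wells and ADEP (5.8 microM final).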
* = called active by the depositor; u = inconclusive; x = not tested or not shown; & = joins results of further samples; [ ] = another dose, or the depositor's remark.

Compound	gsp antagonist	CtBP-E1A inh	Menin-MLL FL inh	TRPV1 potentiator	Sfp inh	gsp agonist	ClpP mod
Cc1ccc(S(=O)(=O)NCCC2=CCCCC2)cc1	3%	-20	x	-22	x	2%[15.4 µM]	-17%
COc1cc(OC)cc(C(=O)Nc2cccc(C(C)=O)c2)c1	0%	1	-0.8	x	17%	12%	-0.3%
CC(NS(=O)(=O)c1ccc(Cl)cc1)C(=O)NCc1ccco1 (stereo not given)	4%	-9	2.0	14	2%	-4%	-3.5%
CCN1CCN(C(=O)c2ccc(CSc3ccc(C)cc3)cc2)CC1	3%	0	-0.8	27	8%	-4%	-1.9%
O=C(NCCCn1ccnc1)c1cccc(Br)c1	-4%	1	1.2	-6	6%	12%	x
COc1cccc(C2CC(=O)NC(SC)=C2C#N)c1 (stereo not given)	4%	-2	0.3	1	1%	5%	2.3%
Cc1cc(C)n2cc(CSc3nnnn3C)nc2n1	10%	5	-4.9	2	5%	26%	25µM*
CCOc1cc(CNc2ccc(CNc3ncn[nH]3)cc2)ccc1OCc1ccccc1	u	-17	-0.3	8	7%	-7%	-0.1%
O=C(CSc1ccc(C(F)(F)F)cc1[N+](=O)[O-])NCCOc1ccccc1	-14%	13	5.8	8	-4%	3%	2.7%
Cc1[nH]c2ccccc2c1C1(O)C(=O)N(C(C)C)c2ccccc21 (stereo not given)	18%	-17	-3.7	0	-12%	u	0.7%
O=C(Nc1ccc(O)cc1)c1ccc2c(c1)C(=O)N(Cc1ccccc1)C2=O	-12%	-17	-0.4	-8	2%	-20%	2.0%
COc1ccc(NC(=O)C2Cc3cccc(OC)c3O/C2=N\O)cc1 (stereo not given)	6%	x	1.5	-11	-1%	8%	0.9%
N#Cc1nnn(Cc2ccccc2)c1N	4%	x	1.9	-5	2%	3%	-1.7%
O=c1c(Cl)c(NCc2ccccc2)cnn1C12CC3CC(CC(C3)C1)C2	-19%	0	9.1	-4	7%	-1%[15.4 µM]	-3.0%
Cn1c(=O)oc2cc(S(=O)(=O)CCC(=O)N3CCN(c4ccccc4F)CC3)ccc21	-9%	-6	1.3	-3	4%	-51%[inhibitor]	-1.4%&0.9%
Cc1cc(C)cc(OCC(=O)N2Cc3ccccc3CC2C(=O)O)c1 (stereo not given)	x	19	-0.2	1	8%	-15%[15.4 µM]	x
COc1ccccc1NC(=O)CSc1nnc2ccc(-c3cccnc3)nn12	6%	-10	4.8	3	1%	-11%[15.4 µM]	x
COc1cccc(-n2c(C)cc(/C=C3/C(=N)N4C(=NC3=O)SN=C4S(C)(=O)=O)c2C)c1	u	6	u	6	-4%	-4%[15.4 µM]	x
COc1ccc(OCCSc2nc(-c3ccccc3)cc(=O)[nH]2)cc1	9%	-11	5.4	-1	9%	-41%[inhibitor]	x
CCNc1oc(-c2cccc3ccccc23)nc1C#N	6%	7	-2.4	-7	2%	u	-104%
Cn1cc(CCC(=O)N2CCCC(CCC(=O)NCc3ccccc3F)C2)cn1 (stereo not given)	3%	-9	1.7	-4	22%	-1%	-1.2%
COC(=O)C1C(c2ccc(OC)c(OC)c2)NC(c2ccc(OC)c(OC)c2)C(C(=O)OC)S1(=O)=O (stereo not given)	5%	1	0.2	u	u	-24%	0.3%
NS(=O)(=O)c1ccc(CCNC(=O)COC(=O)CCc2ccccc2)cc1	2%	9	-3.5	6	11%	-14%	x
COc1ccc(S(=O)(=O)NCc2cn3c(C)csc3n2)cc1F	14%	6	-0.7	9	19%	26%	0.0%
NC(=O)CC(NC(=O)c1ccc(Br)cc1)c1ccc(NC2CCCCCCC2)c([N+](=O)[O-])c1 (stereo not given)	u	-16	5.1	-8	5%	-13%	-1.5%
CSC1=NC(C(Cl)(Cl)Cl)N=C(c2ccccc2)N1 (stereo not given)	23%	13	-0.4	27	23%	-6%[15.4 µM]	0.7%
Cc1cccc(C2CC(c3ccc(Cl)cc3)Nc3nc(N)nn32)c1 (stereo not given)	-1%	2	-2.9	6	20%	-54%[inhibitor]	-2.2%
CCOCCCNC(=O)c1ccc2c(c1)ncn2C1CCCC1	-4%	8	-2.2	-8	11%	2%	0.4%
CC(/C=C/c1ccccc1F)=N\NC(=O)C(C)C	-15%	2	-0.3	1	32%[activator]	-13%	u
CCCOc1cccc(C(=O)NCCNC(=O)c2cnccn2)c1	5%	3	-5.2	-8	2%	-20%	x
O=C(O)c1ccc(COc2ccc3c4c(c(=O)oc3c2)CCC4)o1	-19%	-13	2.8	3	-19%	18%	2.5µM*
COc1ccc(C(=O)OCC(=O)NC(Cc2ccccc2)C(C)=O)cc1S(=O)(=O)N1CCCC1 (stereo not given)	-1%	-4	x	-3	x	-26%	-2.1%
Cc1ccccc1Cn1nnc(-c2ccc(C(=O)O)cc2)n1	-14%	x	7.9	-2	6%	7%[15.4 µM]	x
Cc1ccc(-c2nsc(SCC(=O)NCc3ccc4c(c3)OCO4)n2)cc1	-2%	8	2.6	29	-6%	-7%	1.4%
O=C(O)c1c(NC(=O)N(CCO)Cc2ccccc2)sc2c1CCCC2	11%	0	-0.8	1	-18%	16%	-5.0%
Cc1ccc(C[n+]2ccccc2)cc1	-19%	1	x	-2	x	x	-0.8%
COc1ccc(NC(=O)CSc2nc3c(c(=O)n2-c2ccccc2)SCC3)c(OC)c1	11%	0	6.3	-3	4%	-41%[inhibitor]	1.2%
CC1(C)CC(=O)C=C(NCCN2CCN(C(=O)Nc3ccc(Cl)c(Cl)c3)CC2)C1	u	-2	3.1	9	14%	1%	-0.6%
COc1cccc(/C(O)=C2/C(=O)C(=O)N(c3ccccn3)C2c2ccc(OC)c(OC)c2)c1 (stereo not given)	-16%	6	0.6	-15	0%	-10%	-0.5%
CC(C)c1ccc(S(=O)(=O)c2nnn3c2nc(NCC2CCCO2)c2ccccc23)cc1 (stereo not given)	-3%	2	6.9	6	18%	4%	4.2%
O=C(NNC(=O)c1cccnc1Cl)c1ccc(F)cc1	3%	0	x	-1	8%	u	0.5%
Cc1[nH]n(-c2ccccc2)c(=O)c1C=NC1CCCCC1	2%	x	4.9	-7	6%	-75%[inhibitor]	-1.6%
CCC(=O)Nc1nnc(SCc2cccc(F)c2)s1	7%	x	-1.6	3	18%	-3%	-2.2%
O=[N+]([O-])c1cnccc1Nc1ccccc1	16%	-8	1.7	5	12%	3%	0.0%
O=C(CCNS(=O)(=O)c1ccc(Br)cc1)NCC1CCCO1 (stereo not given)	4%	3	x	-2	x	-16%	-5.0%
C=CCn1c(-c2ccccc2)nc(=S)c2c1CC(C)(C)OC2	4%	8	3.3	0	7%	u	0.4%
Cc1cc(C)nc(SC2CCCCC2NS(=O)(=O)c2ccccc2)n1 (stereo not given)	-10%	-2	-0.1	0	2%	-86%[inhibitor]	0.8%
Cc1onc(-c2ccccc2)c1C(=O)Nc1ccc(Br)cc1Cl	9%	3	-8.1	4	5%	14%	2.7%
Cc1cccc(NS(=O)(=O)c2ccc3[nH]c(=O)cc(C(=O)O)c3c2)c1	8%	x	0.1	0	17%	u	-23%
Cc1cccc(NC(=S)NC2CCCC2)c1C	3%	-6	2.7	-2	10%	-1%	-1.6%
O=C(c1ccc(Cl)cc1)[C@@H]1[C@@H]2C(=O)N(c3ccccc3)C(=O)[C@@H]2C2c3ccccc3C=NN21 (stereo not given in full)	-10%	-24	20	11	-12%	u	-3.5%
Cc1csc(CN(C)C(=O)CC2C(=O)NCCN2Cc2ccc(F)cc2Cl)n1 (stereo not given)	4%	-1	x	-11	-21%	24%	-13%
O=C(c1ccc(OC2CCN(C/C=C/c3ccccc3)CC2)cc1)N1CCCC1	9%	0	x	-14	14%	5%[15.4 µM]	0.8%
COc1ccc(-n2nc(C(=O)NCC(=O)Nc3cccc(C)n3)c3ccccc3c2=O)cc1	5%	-7	2.7	17	-5%	12%	70%
CCc1ccc(N2CN(CCc3ccccc3)CNC2=S)cc1	0%	-2	4.9	8	15%	-71%[inhibitor]	0.2%
CC(C)N(Cc1nccn1C)C(=O)CC1C(=O)NCCN1Cc1ccccc1C(F)(F)F (stereo not given)	-37%	21	-3.9	-2	u	18%[15.4 µM]	x
COc1cc(-c2n[nH]c(=S)n2/N=C/c2cccn2C)cc(OC)c1OC	4%	-1	-0.3	-7	u	3%[15.4 µM]	x
COc1ccccc1NC(=O)COC(=O)c1ccc(S(=O)(=O)NCc2ccco2)cc1	-12%	-5	2.8	1	-8%	22%	3.9%

Looked up by compound from the entries so far:
Compound	gsp antagonist	CtBP-E1A inh	Menin-MLL FL inh	TRPV1 potentiator	Sfp inh	gsp agonist	ClpP mod
O=c1c(Cl)c(NCc2ccccc2)cnn1C12CC3CC(CC(C3)C1)C2	-19%	0	9.1	-4	7%	-1%[15.4 µM]	-3.0%
Cc1ccc(-c2nsc(SCC(=O)NCc3ccc4c(c3)OCO4)n2)cc1	-2%	8	2.6	29	-6%	-7%	1.4%
NS(=O)(=O)c1ccc(CCNC(=O)COC(=O)CCc2ccccc2)cc1	2%	9	-3.5	6	11%	-14%	x
O=C(CSc1ccc(C(F)(F)F)cc1[N+](=O)[O-])NCCOc1ccccc1	-14%	13	5.8	8	-4%	3%	2.7%
COc1cc(-c2n[nH]c(=S)n2/N=C/c2cccn2C)cc(OC)c1OC	4%	-1	-0.3	-7	u	3%[15.4 µM]	x
O=C(c1ccc(Cl)cc1)[C@@H]1[C@@H]2C(=O)N(c3ccccc3)C(=O)[C@@H]2C2c3ccccc3C=NN21 (stereo not given in full)	-10%	-24	20	11	-12%	u	-3.5%

Screening data from PubChem BioAssay.
